CtBP-E1A inh: inhibitors of CtBP/E1A interaction; AlphaScreen GST-E1A/His-CtBP binding, 1536-well; hits give low values; control for the full effect not named in the record; activity change, % (no concentration beside the values); actives 0.49% (n = 340,000); in the data active means activity change below about -65%; inconclusive means about -30% to -65%; inactive means above about -30%; note: % is set by controls: 0 for no effect and ±100 for the full control effect; compound concentration not given in the record
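In 5 uL wells, 23 nL compound meets equimolar GST-E1A and His-CtBP (5X stock 125 nM each) for 2 h, 37 °C. Beads (5X, 50 ug/mL) then 1 h, 37 °C, dark.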
gsp antagonist: antagonizes gsp, the McCune-Albright syndrome mutation | gsp-mutant cells, cAMP HTRF, 30 min; control for the full effect not named in the record | AID 624288 | Potency, µM (doses to about 76.9 µM), for inactives: top-dose activity change, negative = inhibition, actives largely listed as inhibitors | actives 0.4% (n = 340,000); active = falling curve of any shape with a large fitted effect; inconclusive = falling curve, mostly with a smaller effect; inactive = flat or rising curve; cell line not stated here;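 note: intracellular cAMP measured with PDE inhibitor Ro 20-1724 present during compound exposure; potency is the fitted concentration of half-maximal effect; % is set by controls: 0 for no effect and ±100 for the full control effect; nearly all actives have a fitted effect of over 65% in size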
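Cells in G418 medium, seeded 16-24 h, 37C; buffer exchange to DPBS + 1 mM CaCl2, 0.5 mM MgCl2, 0.05% BSA; cpds in DMSO + […] (300 uM stock), 30 min 37C; HTRF cAMP detection.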
Sfp inh: inhibitors of Bacillus subtilis Sfp phosphopantetheinyl transferase; Biochemical Sfp PPTase activity, qHTS; Q9F4F7; Potency, µM, inactives show max response, negative = inhibition, actives largely listed as inhibitors; AID 1490; actives 3.5% (n = 310,000); active = well fitted inhibition curve with a large enough effect; inconclusive = small, poorly fitted or top-dose-only effect, or another doubt; inactive = no such curve, though single readings can be large or run the other way;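 note: the enzyme is Sfp with the accession as filed and its product quenches rhodamine fluorescence; potency is the fitted concentration of half-maximal effect; 0% = enzyme reaction without inhibitor and -100% = no enzyme wells; top concentration of the series not given in the record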
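Reaction rates are the 30-min fluorescence difference (ex 525, em 598 nm) in wells containing 15 nM Sfp, 5 uM rhodamine-CoA and 12.5 uM BHQ-2-YbbR at pH 7.6 with 10 mM MgCl2.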
TRPV1 PAM: human TRPV1 potentiation. AID 540277. potentiation, % at 8.33 µM. TRPV1-expressing cells, Fluo-8 calcium influx, capsaicin EC20 potentiation; host cell line not named in the record; control for the full effect not named in the record. actives 0.02% (n = 320,000); active means potentiation above 80%; inconclusive means 30% to 80%; inactive means below 30%; note: 0% is about no effect
Target sequence (Q8NER1 whole entry, looked up): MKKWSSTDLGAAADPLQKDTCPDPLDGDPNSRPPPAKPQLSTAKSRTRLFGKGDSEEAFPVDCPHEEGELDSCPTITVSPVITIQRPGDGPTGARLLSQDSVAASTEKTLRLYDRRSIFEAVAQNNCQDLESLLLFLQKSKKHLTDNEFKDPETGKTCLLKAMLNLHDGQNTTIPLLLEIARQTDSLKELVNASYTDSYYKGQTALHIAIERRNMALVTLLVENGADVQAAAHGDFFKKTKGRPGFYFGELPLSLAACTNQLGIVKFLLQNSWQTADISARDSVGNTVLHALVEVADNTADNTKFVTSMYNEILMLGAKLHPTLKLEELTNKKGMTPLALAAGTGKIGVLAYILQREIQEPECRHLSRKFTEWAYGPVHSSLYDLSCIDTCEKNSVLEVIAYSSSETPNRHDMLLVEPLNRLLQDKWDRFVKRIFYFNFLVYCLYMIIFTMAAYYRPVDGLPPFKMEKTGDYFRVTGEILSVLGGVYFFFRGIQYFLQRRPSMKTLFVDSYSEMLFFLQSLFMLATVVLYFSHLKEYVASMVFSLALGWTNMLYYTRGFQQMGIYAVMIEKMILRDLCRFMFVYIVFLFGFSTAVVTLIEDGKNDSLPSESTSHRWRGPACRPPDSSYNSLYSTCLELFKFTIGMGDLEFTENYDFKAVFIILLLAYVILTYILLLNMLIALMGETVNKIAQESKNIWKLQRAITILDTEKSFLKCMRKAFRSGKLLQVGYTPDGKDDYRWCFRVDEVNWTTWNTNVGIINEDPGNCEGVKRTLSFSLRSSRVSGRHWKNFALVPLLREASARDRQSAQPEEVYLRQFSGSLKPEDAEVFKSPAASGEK
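TRPV1-expressing cells were cultured overnight at 35.5C and loaded with Fluo-8 calcium dye for 40 to 90 min at room temperature. After a 10 s baseline, compound was added and calcium influx was read kinetically for 3 min (ex 480/em 520 nm).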
ClpP mod: qHTS Assay for Activators of ClpP | ATP-dependent Clp protease proteolytic subunit (Bacillus subtilis (strain 168)), P80244 | purified B. subtilis ClpP, FRET peptide cleavage, 20 min | Potency, µM (top dose mostly 57.5 µM), without a hit: at the top dose activity change, negative = active | actives 1.9% (n = 340,000) | AID 651965, 2013; active = well fitted falling curve with a large enough effect; inconclusive = small, poorly fitted or top-dose-only effect; inactive = no such curve, though single readings can be large or run the other way; note: potency is the fitted concentration of half-maximal effect; the source files actives as falling curves though it sought activators and does not explain the sign; nearly all actives have a fitted effect of over 65% in size; many hits overshoot -100%
Target sequence (P80244 whole entry, looked up): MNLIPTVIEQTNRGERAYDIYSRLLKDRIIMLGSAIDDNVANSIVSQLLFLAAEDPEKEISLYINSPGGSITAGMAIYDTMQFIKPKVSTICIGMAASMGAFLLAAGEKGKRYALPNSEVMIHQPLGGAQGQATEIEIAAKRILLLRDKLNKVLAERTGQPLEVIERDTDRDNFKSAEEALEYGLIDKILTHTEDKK
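Purified B. subtilis ClpP, 10 microg/mL final in Tris/HCl pH8 with KCl, BSA, glycerol and Tween-20, cleaved an Abz/nitrotyrosine-quenched decapeptide. Fluorescence (ex 320, em 430) was read at 0 and 20 min at room temperature. Delta was normalized to 5.8 microM ADEP and DMSO/no-enzyme controls.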
Menin MLL FP FL: inhibitors of human menin-MLL interaction, wild-type MLL peptide. Fluorescence polarization, fluorescein-MLL peptide displacement from menin. FP activity change, % at 61.4 µM. 290,000 tested, under 10 active; inconclusive = falling polarisation curve, or a change in total fluorescence; inactive = total fluorescence flat and polarisation flat or rising; no compound was filed as active; the % refers to the polarisation; negative = inhibition;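 note: % of control where 0% means no effect; inhibitors lower the polarisation; unlabelled MLL peptide was the positive control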
gsp agonist: agonists of gsp mutant (McCune-Albright syndrome); Potency, µM (highest dose often 76.9 µM), for the others: at the top dose activation (cAMP increase), hits mostly activators; actives 0.13% (n = 340,000); gsp mutant cells, cAMP HTRF, 30 min; control for the full effect not named in the record; active = well fitted activation curve with a large enough effect; inconclusive = small, poorly fitted or top-dose-only effect, or another doubt; inactive = no such curve, though single readings can be large or run the other way; cell line not stated here;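 note: phosphodiesterase inhibitor Ro 20-1724 added with compounds to block cAMP breakdown; potency is the fitted concentration of half-maximal effect; nearly all actives have a fitted effect of over 60% in size; about a fifth of the inactives were tested at one dose only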
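Cells in DMEM/10% FBS with G418 were pretreated with compounds in DMSO plus […] (300 uM stock) for 30 min at 37C. cAMP was measured by HTRF (cAMP-d2 plus anti-cAMP antibody-K) after 30 min at room temperature.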
* marks the source's active call; other numbers are inactive results; ? = inconclusive; · = not tested or not shown; & = joins results of further samples; [ ] = dose if it differs, or a comment.

SMILES	CtBP-E1A inh	gsp antagonist	Sfp inh	TRPV1 PAM	ClpP mod	Menin MLL FP FL	gsp agonist
c1ccc(-n2nnnc2-n2cnc3ccccc32)cc1	6	4%	23%	11	0.3%	3.2	28%
O=C(NCCc1csc(-c2cccnc2)n1)c1ccc(Cl)cc1	-10	-9%	16%	11	-9.0%	0.5	11%
CS(=O)(=O)Nc1ccc(-c2cn3c(n2)SCC3)cc1	3	12%	0%	-17	-14%	6.4	6%
Cc1cccc2cc(/C=C/C(=O)c3ccco3)c(Cl)nc12	-1	-6%	-21%	7	·	13	1%[15.4 µM]
CC1CCCC(C)N1S(=O)(=O)c1ccc(NC(=O)c2ccccc2C(=O)N2CCOCC2)cc1 (configuration not stated)	3	2%	15%	-16	-1.1%	4.6	16%
Cc1ccc(C)c(S(=O)(=O)N2CC(=O)N(CCc3ccccc3)C(=O)C2)c1	16	-15%	6%	-6	1.5%	1.5	14%[15.4 µM]
CC(=O)NCCSC(=O)c1ccc(F)cc1	10	13%	15%	-34	-2.0%	-1.7	-30%
COc1ccc(C2CC(c3cccs3)=NN2C(=O)CSC2=NCCS2)cc1 (configuration not stated)	-6	-30%	-7%	-4	4.0%	·	12%
Cc1cc(C)c(C)c(C(=O)CSc2nnc(C)c(=O)[nH]2)c1C	·	·	?	11	·	4.0	·
CC(C)C(=O)Nc1ccc(S(=O)(=O)N2CCC(c3nc4ccccc4[nH]3)CC2)cc1	1	1%	·	-6	-5.1%	·	-63%[inhibitor]
CCCC(CCC)C(=O)Nc1ccncc1	1	0%	8%	-3	-0.2%	1.0	-21%
CCC(=O)N1CCc2cc(Br)cc(S(=O)(=O)CCC(=O)NCCOC)c21	5	-2%	16%	5	2.0%	0.9	?

Single records, as listed above.
Cc1ccc(C)c(S(=O)(=O)N2CC(=O)N(CCc3ccccc3)C(=O)C2)c1 is entered as CtBP-E1A inh: 16; gsp antagonist: -15%; Sfp inh: 6%; TRPV1 PAM: -6; ClpP mod: 1.5%; Menin MLL FP FL: 1.5; gsp agonist: 14%[15.4 µM]
Cc1cccc2cc(/C=C/C(=O)c3ccco3)c(Cl)nc12 is entered as CtBP-E1A inh: -1; gsp antagonist: -6%; Sfp inh: -21%; TRPV1 PAM: 7; ClpP mod: ·; Menin MLL FP FL: 13; gsp agonist: 1%[15.4 µM]

(listing goes on)
SMILES	CtBP-E1A inh	gsp antagonist	Sfp inh	TRPV1 PAM	ClpP mod	Menin MLL FP FL	gsp agonist
CC1=C(C(=O)OCc2ccccc2)C(c2cccs2)NC(=O)N1CCCC(=O)O (configuration not stated)	0	0%	-5%	10	-1.9%	6.5	-48%[inhibitor]
C=C(C)CC(c1ccccc1)N(C(C)=O)c1ccco1 (configuration not stated)	·	2%	4%	-5	1.0%	-0.2	-61%[inhibitor]
COc1cccc(C(=O)N(CN2CCCC2=O)c2ccccc2OC)c1	-14	7%	18%	-12	-1.4%	-0.4	-1%
Cc1ccc(NC(=O)C(C)Sc2nnc(C3CC3)n2C2CC2)cc1S(=O)(=O)N1CCOCC1 (configuration not stated)	3	-22%	·	2	-0.4%	·	-39%[inhibitor]
CN(C)CCN(Cc1ccco1)C(=O)c1cc2c(Cl)nc3ccccc3c2s1	-4	16%	10%	-3	-1.9%	-5.4	-16%
CC(C)COc1ccc(C(=O)Nc2ccccc2[N+](=O)[O-])cc1	11	-4%	-4%	-5	-0.9%	4.9	-67%[inhibitor]
CN(C)CCN(Cc1cc2cc3c(cc2nc1Cl)OCO3)C(=O)c1ccco1	0	11%	8%	-5	·	·	-3%
CN(C)CCN(C(=O)c1ccco1)c1nc2cc3c(cc2s1)OCCO3	5	12%	1%	1	0.2%	-3.9	16%
COCCC(=O)N1CCC(Oc2ccc(C(=O)N3CCC[C@H]3CO)cc2)CC1	8	2%	15%	6	24%	·	-10%
O=C1NC2(Nc3ccccc31)C(=O)Nc1ccccc12 (configuration not stated)	-15	-6%	-12%	0	?	1.2	20%
O=C(c1ccco1)N1CCN(Cc2csc(-c3ccccc3Cl)n2)CC1	16	-15%	-7%	-6	2.3%	·	-2%
O=C(COc1ccccc1)N1CCNC1=O	-2	11%	22%	11	1.4%	1.5	2%

Copied from the list:
gsp antagonist, `COCCC(=O)N1CCC(Oc2ccc(C(=O)N3CCC[C@H]3CO)cc2)CC1` : 2%
TRPV1 PAM, `CN(C)CCN(C(=O)c1ccco1)c1nc2cc3c(cc2s1)OCCO3` : 1

Going on with the list.
SMILES	CtBP-E1A inh	gsp antagonist	Sfp inh	TRPV1 PAM	ClpP mod	Menin MLL FP FL	gsp agonist
Cc1nc(N2CCCCC2C)c2c(C)c(C(=O)Nc3ccccc3C(F)(F)F)sc2n1 (configuration not stated)	·	-13%	-18%	-5	4.6%	-1.2	24%
CCC(=O)Nc1nc2ccccc2n1CCN1CCOCC1	3	-6%	5%	10	-1.1%	1.7	16%[15.4 µM]
FC(F)(F)c1ccc(CN2C[C@@H]3C(c4ccc(Cl)nc4)C4(c5cccnc5)CC3(C4)[C@H]2c2ccccc2)cc1 (some centres not stated)	-8	-14%	-19%	19	-3.9%	7.1&2.1	10%
CC(=O)c1ncnn1CC(=O)c1ccc(Cl)cc1Cl	41	12%	9%	7	0.4%	-0.1	20%
CN(C)c1ccc(C(CC(=O)O)C(=O)O)cc1 (configuration not stated)	-13	-5%	11%	-3	·	2.2	23%[15.4 µM]
Cc1cc(C)cc(Oc2ccc(C(F)(F)F)cc2C#N)c1	46	5%	3%	14	0.3%	0.9	-14%
CCc1cccc(C)c1NC(=O)C(c1ccccc1)N1CCC1=O (configuration not stated)	-6	7%	11%	1	-0.5%	3.1	14%
COc1ccc(CNC(=O)C(C#N)c2nc3ccccc3nc2N2CCN(C)CC2)cc1 (configuration not stated)	4	24%	-3%	-2	-1.3%	16	5%
Fc1ccc(Nc2ncnc3sccc23)cc1	-24	-9%	23%	-27	·	3.1	15%
Cc1cc(NC(=O)CSCc2ccc([N+](=O)[O-])cc2)no1	0	0%	0%	2	·	0.3	35%[15.4 µM]
CCC(C)[C@H]1CNC(=S)N1CCC12CC3CC(CC(C3)C1)C2 (some centres not stated)	4	-11%	26%	-20	0.4%	5.5	·
O/N=C1\CCCc2oc3c(c21)CCCC3	2	-4%	-15%	11	-1.3%	1.2	-27%

Compounds above that have an aryl thioether with sulfur outside any ring (2):
SMILES	CtBP-E1A inh	gsp antagonist	Sfp inh	TRPV1 PAM	ClpP mod	Menin MLL FP FL	gsp agonist
Cc1cc(C)c(C)c(C(=O)CSc2nnc(C)c(=O)[nH]2)c1C	·	·	?	11	·	4.0	·
Cc1ccc(NC(=O)C(C)Sc2nnc(C3CC3)n2C2CC2)cc1S(=O)(=O)N1CCOCC1 (configuration not stated)	3	-22%	·	2	-0.4%	·	-39%[inhibitor]

(cont.)
SMILES	CtBP-E1A inh	gsp antagonist	Sfp inh	TRPV1 PAM	ClpP mod	Menin MLL FP FL	gsp agonist
CCN(CC)C(=O)CSc1nc(C)cc(-c2cccs2)c1C#N	5	17%	40µM*	-13	-28%	2.6	7%
CCOC(=O)N1CCN(Cc2c(O)ccc3ccccc23)CC1	3	-2%	-5%	17	·	4.2	?
C/C(=N\NC(=O)CSCc1cccc(Br)c1)c1ccc([N+](=O)[O-])cc1	-1	2%	-15%	4	-0.7%	4.4	-4%
COCCn1c(=O)[nH]c2cc(C(=O)NCc3ccccc3)ccc2c1=O	-3	14%	12%	6	14µM*	0.9	22%
CN(C)c1ccc(/C=C/c2nc3ccccc3s2)cc1	?	5%	-6%	-1	-1.0%&-0.3%	?	21%
COc1cc(N2CCCC2)c(OC)cc1/C=C(/C#N)c1ccc(F)cc1	?	-9%	?	2	-7.2%	?	-28%
COc1cc(C2NC(=O)NC(c3ccccc3)=C2C(C)=O)cc(Cl)c1OCC(=O)O (configuration not stated)	-2	3%	13%	-36	·	7.9	-6%[15.4 µM]
N/C(=N\OC(=O)CCCc1ccccc1)c1cccc([N+](=O)[O-])c1	5	6%	-5%	-6	2.0%	-2.1	-9%
CCN1C(=O)[C@H]2[C@@H](c3ccc(-c4ccccc4)c(OC)c3)N[C@@](CC(C)C)(C(=O)OC)[C@H]2C1=O	-17	-11%	·	·	4.7%	·	·
COCCNC(=O)Cn1c(=O)oc2cc(S(=O)(=O)N3CC(C)CC(C)C3)ccc21 (configuration not stated)	-1	1%	3%	1	-0.4%	·	8%
CCOC(=O)N1CCN(C(=O)COc2cc(C)c(Cl)c(C)c2)CC1	-8	·	-13%	-4	·	1.0	10%[15.4 µM]
COc1ccc2c(Cl)c(C(=O)N/N=C/c3cccnc3)sc2c1	-1	-9%	13%	-10	·	-2.4	2%[15.4 µM]

Pulled by structure from above, two records:
SMILES	CtBP-E1A inh	gsp antagonist	Sfp inh	TRPV1 PAM	ClpP mod	Menin MLL FP FL	gsp agonist
COc1cc(N2CCCC2)c(OC)cc1/C=C(/C#N)c1ccc(F)cc1	?	-9%	?	2	-7.2%	?	-28%
COCCn1c(=O)[nH]c2cc(C(=O)NCc3ccccc3)ccc2c1=O	-3	14%	12%	6	14µM*	0.9	22%

From PubChem BioAssay
